TRPV1 potentiator: human TRPV1 potentiation. TRPV1-expressing cells, Fluo-8 calcium influx, capsaicin EC20 potentiation; host cell line not named in the record; control for the full effect not named in the record. 320,000 compounds, 0.02% hits. potentiation, % at 8.33 µM. Q8NER1; active means potentiation above 80%; inconclusive means 30% to 80%; inactive means below 30%; note: 0% is about no effect
Target sequence (Q8NER1 whole entry, looked up): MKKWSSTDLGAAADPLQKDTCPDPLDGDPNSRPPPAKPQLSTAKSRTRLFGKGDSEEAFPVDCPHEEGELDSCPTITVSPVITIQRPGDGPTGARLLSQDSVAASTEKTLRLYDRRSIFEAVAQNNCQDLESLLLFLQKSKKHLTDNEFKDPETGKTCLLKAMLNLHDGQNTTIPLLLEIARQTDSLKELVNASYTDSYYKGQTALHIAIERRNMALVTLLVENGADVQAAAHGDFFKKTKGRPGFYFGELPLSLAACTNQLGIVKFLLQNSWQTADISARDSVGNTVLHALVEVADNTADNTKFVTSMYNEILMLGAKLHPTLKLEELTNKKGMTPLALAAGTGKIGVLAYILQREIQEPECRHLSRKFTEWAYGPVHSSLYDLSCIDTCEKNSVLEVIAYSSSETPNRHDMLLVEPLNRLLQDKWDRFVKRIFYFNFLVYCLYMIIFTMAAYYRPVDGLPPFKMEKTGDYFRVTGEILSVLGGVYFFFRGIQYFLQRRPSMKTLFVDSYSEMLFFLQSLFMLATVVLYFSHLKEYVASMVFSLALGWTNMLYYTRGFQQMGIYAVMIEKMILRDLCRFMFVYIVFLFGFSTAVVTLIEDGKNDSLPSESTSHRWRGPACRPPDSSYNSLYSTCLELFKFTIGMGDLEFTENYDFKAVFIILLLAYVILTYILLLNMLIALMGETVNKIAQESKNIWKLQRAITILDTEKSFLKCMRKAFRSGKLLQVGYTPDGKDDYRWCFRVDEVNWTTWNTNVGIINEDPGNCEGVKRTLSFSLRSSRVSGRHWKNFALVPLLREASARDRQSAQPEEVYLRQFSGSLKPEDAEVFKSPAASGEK
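Fluo-8 calcium influx in TRPV1-expressing cells, kinetic read (ex 480/em 520 nm). Compound added and read 3 min for agonist activity, followed by capsaicin at EC20 final and 2 min further read for enhancement.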
gsp agonist: activates gsp, the McCune-Albright syndrome mutation; gsp mutant cells, cAMP HTRF, 30 min; control for the full effect not named in the record; Potency, µM (top dose mostly 76.9 µM), without a hit: at the top dose activation (cAMP increase), hits mostly activators; 340,000 compounds, 0.13% hits; active = well fitted activation curve with a large enough effect; inconclusive = small, poorly fitted or top-dose-only effect, or another doubt; inactive = no such curve, though single readings can be large or run the other way; cell line not stated here;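 note: phosphodiesterase inhibitor Ro 20-1724 added with compounds to block cAMP breakdown; potency is the fitted concentration of half-maximal effect; nearly all actives have a fitted effect of over 60% in size; about a fifth of the inactives were tested at one dose only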
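Cells in DMEM/10% FBS with G418 were pretreated with compounds in DMSO plus […] (300 uM stock) for 30 min at 37C. cAMP was measured by HTRF (cAMP-d2 plus anti-cAMP antibody-K) after 30 min at room temperature.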
CtBP-E1A inh: blocks the CtBP interaction with E1A; AlphaScreen GST-E1A/His-CtBP binding, 1536-well; stronger effect = lower value; control for the full effect not named in the record; activity change, % (test concentration not listed); 340,000 compounds, 0.49% hits; in the data active means activity change below about -65%; inconclusive means about -30% to -65%; inactive means above about -30%; note: % is set by controls: 0 for no effect and ±100 for the full control effect
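Protein mix (5X: 125 nM each GST-E1A, His-CtBP) was incubated with pinned compound 2 h at 37 deg C in dark, in 50 mM Tris pH 8.0 buffer with 300 mM NaCl. Glutathione donor and nickel acceptor beads followed; AlphaScreen signal read after 1 h.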
Sfp inh: Sfp phosphopantetheinyl transferase inhibition | Potency, µM, without a hit: max response, negative = inhibition, most hits filed as inhibitors | 310,000 compounds, 3.5% hits | Biochemical Sfp PPTase activity, qHTS; active = well fitted inhibition curve with a large enough effect; inconclusive = small, poorly fitted or top-dose-only effect, or another doubt; inactive = no such curve, though single readings can be large or run the other way;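 note: the enzyme is Sfp with the accession as filed and its product quenches rhodamine fluorescence; potency is the fitted concentration of half-maximal effect; 0% = enzyme reaction without inhibitor and -100% = no enzyme wells; top concentration of the series not given in the record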
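With Hepes-Na pH 7.6 buffer containing 10 mM MgCl2, Sfp (15 nM) modified BHQ-2-YbbR (12.5 uM) using rhodamine-CoA (5 uM). Two reads 30 minutes apart at 525/598 nm yielded each well's rate.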
ClpP mod: qHTS Assay for Activators of ClpP; ATP-dependent Clp protease proteolytic subunit (Bacillus subtilis (strain 168)), P80244; purified B. subtilis ClpP, FRET peptide cleavage, 20 min; Potency, µM (highest dose often 57.5 µM), without a hit: top-dose activity change, negative = active; 340,000 compounds, 1.9% hits; active = well fitted falling curve with a large enough effect; inconclusive = small, poorly fitted or top-dose-only effect; inactive = no such curve, though single readings can be large or run the other way; note: potency is the fitted concentration of half-maximal effect; the source files actives as falling curves though it sought activators and does not explain the sign; nearly all actives have a fitted effect of over 65% in size; many hits overshoot -100%
Target sequence (P80244 whole entry, looked up): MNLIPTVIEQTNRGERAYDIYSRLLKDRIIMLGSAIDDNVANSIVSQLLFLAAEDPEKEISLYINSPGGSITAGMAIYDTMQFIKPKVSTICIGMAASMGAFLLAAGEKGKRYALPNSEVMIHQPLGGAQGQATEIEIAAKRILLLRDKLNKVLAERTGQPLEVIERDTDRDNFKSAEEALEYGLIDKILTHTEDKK
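Buffer: 100 mM Tris/HCl pH8, 100 mM KCl, 0.05% low protease BSA, 2.5% glycerol, 0.01% Tween-20. ClpP 10 microg/mL final; 20 min RT; delta FRET normalized to ADEP and DMSO controls.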
Menin MLL FP FL: menin-MLL binding inhibition, fluorescein peptide | FP activity change, % at 61.4 µM | Fluorescence polarization, fluorescein-MLL peptide displacement from menin | 290,000 tested, under 10 active; inconclusive = falling polarisation curve, or a change in total fluorescence; inactive = total fluorescence flat and polarisation flat or rising; no compound was filed as active; the % refers to the polarisation; negative = inhibition;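 note: % of control where 0% means no effect; inhibitors lower the polarisation; unlabelled MLL peptide was the positive control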
gsp antagonist: antagonists of gsp mutant (McCune-Albright syndrome) | Potency, µM (top dose mostly 76.9 µM), for the others: top-dose activity change, negative = inhibition, usual class: inhibitors | 340,000 compounds, 0.4% hits | gsp-mutant cells, cAMP HTRF, 30 min; control for the full effect not named in the record; active = falling curve of any shape with a large fitted effect; inconclusive = falling curve, mostly with a smaller effect; inactive = flat or rising curve; cell line not stated here;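 note: intracellular cAMP measured with PDE inhibitor Ro 20-1724 present during compound exposure; potency is the fitted concentration of half-maximal effect; % is set by controls: 0 for no effect and ±100 for the full control effect; nearly all actives have a fitted effect of over 65% in size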
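HTRF cAMP measurement after 30 min RT detection following 30 min, 37C compound treatment alongside […] (added as 300 uM solution) in G418-selected cells seeded at 2000/well and grown 16–24 h.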
Numbers without * were called inactive; ? = inconclusive; . = not tested or not shown; [ ] = remark or other dose. Not a hit list; overall some 5.3% were active at least once.

SMILES | TRPV1 potentiator | gsp agonist | CtBP-E1A inh | Sfp inh | ClpP mod | Menin MLL FP FL | gsp antagonist
CCc1ccc2[nH]c(=O)c(CN(Cc3ccc4c(c3)OCO4)C(=O)c3ccco3)cc2c1 | -3 | ? | -9 | -26% | -4.3% | 1.7 | -24%
C[C@@H]1CN([C@@H](C)CO)C(=O)c2cc(Br)cnc2O[C@H]1CN(C)C(=O)c1cccc(F)c1 | . | 37% | 1 | . | 0.1% | . | .
Clc1cccc(OCCCCCN2CCOCC2)c1 | 2 | ? | 2 | -6% | . | -5.2 | 4%
CCOC(=O)c1ccc(S(=O)(=O)N2CCN(S(=O)(=O)CC)CC2)cc1 | 17 | -25% | 5 | 4% | -0.5% | 1.0 | 19%
NC(=O)CC(NC(=O)Cc1ccc(Cl)cc1)c1ccc(NC2CCN(Cc3ccccc3)CC2)c([N+](=O)[O-])c1 (stereo not drawn) | ? | . | -10 | 8% | 0.3% | -1.2 | -2%
CC(O)CNCCCOc1ccccc1OCc1ccccc1 (stereo not drawn) | -12 | 39%[15.4 µM] | 12 | -13% | -3.6% | 2.8 | -11%
CCC1Nc2ncnc(N3CCOCC3)c2N(Cc2ccc(C)cc2)C1=O (stereo not drawn) | -22 | 2% | -17 | . | -6.4% | . | -5%
CSc1ccccc1C(=O)OCC(=O)Nc1ccc(N2CCOCC2)cc1 | . | 3% | 2 | . | -0.2% | . | 1%
Cc1c(-c2ncn[nH]2)sc(C#N)c1-c1ccccc1 | -2 | ? | 1 | -2% | . | -3.6 | -16%
CCC(C)N(C(=O)COC(=O)Cc1n[nH]c(=O)c2ccccc12)C1CCS(=O)(=O)C1 (stereo not drawn) | 10 | 34% | -8 | 7% | -6.9% | 1.9 | 12%
O=C(O)c1cccc(NC(=O)c2ccccc2NC(=O)c2ccco2)c1 | 7 | . | -9 | 8% | 0.5% | 5.8 | 6%
COc1cc(-c2c(NC(=O)c3ccco3)oc3ccc(Cl)cc3c2=O)cc(OC)c1OC | . | -54% | -3 | . | 5.0% | . | .
O=C(N/C(=C/c1ccccc1)C(=O)N1CCCCCC1)c1ccccc1 | -18 | -23% | 4 | 7% | . | 0.9 | 3%
CCN(CC)S(=O)(=O)c1ccc(-c2cc(C(=O)OC)sc2C(F)(F)F)cc1 | -1 | 3%[15.4 µM] | 1 | 26% | -1.8% | -3.8 | -7%
Cc1cc(C)c(S(=O)(=O)Nc2cc(C)on2)c(C)c1 | -1 | ? | -10 | 6% | -1.3% | -9.6 | -6%
CCOC(=O)C1CCN(C(C)=C2C(=O)c3ccccc3C2=O)CC1 | -3 | 6% | 2 | -8% | -0.4% | 1.7 | 5%
C[C@@H]1CN([C@H](C)CO)C(=O)CCCn2nncc2CO[C@H]1CN(C)C(=O)Cc1ccccc1 | . | -41% | -7 | . | 0.3% | . | .
CNC(=O)COC(=O)c1ccc2c(c1)NC(=O)C1CCCN21 (stereo not drawn) | 29 | . | . | -19% | . | 0.2 | .
C=CCOc1ccc(CNc2ccc3[nH]c(=O)[nH]c3c2)cc1OC | 7 | -6%[15.4 µM] | -7 | 5% | . | 5.1 | -25%
O=C(NC1CCOCC1)C1CCC(=O)N(Cc2cccc(C(F)(F)F)c2)C1 (stereo not drawn) | ? | -30% | 2 | 10% | -0.4% | 2.1 | 12%
O=C(O)c1ccc2c(c1)S(=O)(=O)c1cc(N3CCN(c4ncccn4)CC3)ccc1C2=O | . | -64%[inhibitor] | 0 | . | -7.5% | . | .
COc1ccc(-c2cccc(C(=O)Nc3ccc(OC)c(OC)c3)c2)cc1 | 17 | ? | -16 | 0% | 46% | 2.9 | -10%
COc1ccccc1NC(=S)N1CCN(c2cccc(C)c2C)CC1 | -8 | -19% | -6 | 4% | -0.7% | 0.1 | -5%
COc1ccccc1S(=O)(=O)N(C)C[C@@H]1Oc2ncc(-c3ccc(C)cc3)cc2C(=O)N([C@H](C)CO)C[C@@H]1C | . | ? | -5 | . | -24% | . | .
CCc1ccccc1NC(=O)c1ccccc1N1C(=O)C2C3C=CC(C3)C2C1=O (stereo not drawn) | -1 | -11% | 6 | 5% | 2.1% | . | -5%
COc1ccccc1N1C(=O)CC(Sc2n[nH]c(-c3cccc(C)c3)n2)C1=O (stereo not drawn) | 4 | 8% | -21 | 5.6µM* | 0.5% | -0.1 | -14%
Cc1ccccc1N(CC(=O)NC1CCCC1)C(=O)C1(C)CC(=O)N=C2C=CC(Cl)=CN21 (stereo not drawn) | 4 | 6%[15.4 µM] | -13 | 13% | . | -5.4 | .
CC(=O)c1cccc(NC(=S)NCCCCc2ccccc2)c1 | 14 | -9% | -9 | 9% | -2.6% | 5.5 | -11%
Cc1ccc(C)c(OCC(O)CN2CCC(Cc3ccccc3)CC2)c1 (stereo not drawn) | 3 | 5% | . | 1% | 1.2% | 7.6 | 7%
CSc1nc(C)c2c(n1)N(c1ccc(C(C)C)cc1)CC2 | -3 | ? | 8 | -4% | ? | 0.6 | -4%
C[C@H](NC(=O)c1ccccc1)C(=O)OCC(=O)Nc1sccc1C(N)=O | . | -5% | -5 | . | -4.6% | . | -21%
COc1ccccc1NC(=O)COC(=O)c1ccc2c(=O)n3c(nc2c1)CCC3 | . | 2% | 2 | . | -6.2% | . | .
BrC(/C=C\c1ccccc1)=N/Nc1nc(N2CCOCC2)nc(N2CCOCC2)n1 | -15 | 21% | -3 | -22% | -1.4% | 0.7 | -30%
C/C(=N\Nc1ccc(S(=O)(=O)Nc2ccccc2)cc1[N+](=O)[O-])c1ccncc1 | 0 | . | . | 2% | . | -0.9 | .
CCCCNC(=O)C1CC(c2cccc([N+](=O)[O-])c2)=NO1 (stereo not drawn) | 1 | ? | 30 | 3% | 1.9% | -0.7 | 10%
CC(=O)Nc1ccc(C(=O)OCC(=O)N(c2ccccc2)C2CCCCC2)cc1 | . | -39%[inhibitor] | -3 | . | 1.2% | . | -5%
O=C(NCC1CCN(C(=O)c2c(F)c(F)c(F)c(F)c2F)CC1)c1c(F)c(F)c(F)c(F)c1F | -13 | 15% | 0 | 6% | -1.9% | . | -18%
Cc1cc2nc(C3CCN(Cc4nnnn4Cc4ccccc4)CC3)[nH]c2cc1C | 1 | -35%[inhibitor] | 13 | -2% | 0.1% | -1.7 | ?
Cc1ccc(NC(=O)CO/N=C(\N)c2nonc2N)cc1C | -19 | -1%[15.4 µM] | 1 | 15% | . | 4.8 | -2%
O=C(N=C1SC2CS(=O)(=O)CC2N1c1ccccc1C(F)(F)F)C1CCCO1 (stereo not drawn) | -17 | -20% | 1 | 9% | 0.0% | . | 11%

Profiles as entered above. Order of screens: TRPV1 potentiator, gsp agonist, CtBP-E1A inh, Sfp inh, ClpP mod, Menin MLL FP FL, gsp antagonist
O=C(NCC1CCN(C(=O)c2c(F)c(F)c(F)c(F)c2F)CC1)c1c(F)c(F)c(F)c(F)c1F as listed: -13, 15%, 0, 6%, -1.9%, ., -18%
Cc1cc2nc(C3CCN(Cc4nnnn4Cc4ccccc4)CC3)[nH]c2cc1C as listed: 1, -35%[inhibitor], 13, -2%, 0.1%, -1.7, ?
COc1ccccc1NC(=O)COC(=O)c1ccc2c(=O)n3c(nc2c1)CCC3 as listed: ., 2%, 2, ., -6.2%, ., .
CC(=O)Nc1ccc(C(=O)OCC(=O)N(c2ccccc2)C2CCCCC2)cc1 as listed: ., -39%[inhibitor], -3, ., 1.2%, ., -5%
Cc1ccc(NC(=O)CO/N=C(\N)c2nonc2N)cc1C as listed: -19, -1%[15.4 µM], 1, 15%, ., 4.8, -2%

(continued)
SMILES | TRPV1 potentiator | gsp agonist | CtBP-E1A inh | Sfp inh | ClpP mod | Menin MLL FP FL | gsp antagonist
O=C(O)c1sc2cc(C(F)(F)F)cnc2c1-c1ccccn1 | 0 | -5% | -3 | 1% | . | -3.2 | 4%
Oc1ccc(O)c2c1C1c3ccccc3C2c2ccccc21 | 1 | . | . | 50µM* | . | 1.6 | .
O=C(NCCCN1CCOCC1)c1cc2ccccc2cc1O | -9 | -13% | 15 | . | -3.9% | . | 3%
c1coc(CNc2nc3ccccc3n2CCN2CCOCC2)c1 | -1 | -11% | 6 | 13% | -0.7% | 1.5 | 0%
CCSc1nnc2c(n1)OC(c1ccc(C(=O)O)cc1)N(C(C)=O)c1ccccc1-2 (stereo not drawn) | . | 11% | 0 | -1% | 0.7% | 7.6 | 6%
CC(=O)c1c(C)n(CCO)c2ccc(O)cc12 | 9 | 29% | -1 | -3% | -0.9% | 0.9 | 3%
CCOc1ccc(NC(=O)CSc2nncc(=O)n2N)cc1 | -4 | ? | 0 | 7% | 0.8% | -7.2 | 7%
C/C(=N/NC(=O)CSc1ccccn1)c1ccc([N+](=O)[O-])cc1 | 1 | -16% | 4 | 0% | -4.3% | 5.4 | -5%
CC12CC3CC(C1)CC(C(=O)NNC(=O)c1ccncc1)(C3)C2 | . | -27% | 5 | . | . | . | 11%
CCOc1cc(C(=O)NCCN2CCOCC2)cc(OCC)c1OCC | 20 | -48%[inhibitor] | -2 | 14% | -1.1% | -1.0 | -6%
Cc1cccc(C2NC(=O)c3ccccc3N2)c1 (stereo not drawn) | . | -6% | 5 | . | 28µM* | . | 17%
NNc1ncnc2c1cnn2-c1ccccc1 | 1 | 24% | -13 | ? | -10% | 3.2 | 6%
COc1ccc(S(=O)(=O)N2CN(CCc3ccc(OC)c(OC)c3)c3nc4ccccc4nc32)cc1 | -2 | 0% | 11 | -7% | -6.4% | 2.0 | -1%
COc1ccc(S(=O)(=O)Nc2cc([N+](=O)[O-])ccc2OC)cc1 | 4 | -1%[15.4 µM] | -1 | 10% | 1.7% | 1.6 | 13%
O=C(COC(=O)Cn1cnc2ccccc21)Nc1ccc(F)c(F)c1 | . | -1%[15.4 µM] | -5 | . | 0.5% | . | 4%
Cc1cc(C)c(NC(=O)C2CC(=O)N(Cc3ccccc3)C2)c(C)c1 (stereo not drawn) | -4 | 3%[15.4 µM] | 0 | 4% | . | 0.2 | .
O=C(CCN1C(=O)/C(=C\c2ccccc2Cl)SC1=S)N1CCN(c2ccccc2)CC1 | 2 | 9% | -2 | 2% | -1.8% | -2.1 | 5%[15.4 µM]
CC(=O)Nc1ccc(S(=O)(=O)N(C#N)c2nc(C)cc(C)n2)cc1 | 15 | 9% | 3 | -14% | -5.8% | 2.3 | 0%

Assay outcomes as filed in PubChem BioAssay.
